RORg inh: qHTS for inhibitors of ROR gamma transcriptional activity | Drosophila S2 Gal4-RORgamma UAS-luciferase reporter, 20 h | Potency, µM (series often up to 53.6 µM), for the others: top-dose activity change, negative = inhibition, most hits filed as inhibitors | 5.4% of 310,000 active | AID 2551, 2010; further: potency means the concentration at half of the fitted maximal effect; on the % scale 0 is the no-effect control and ±100 the full control effect; nearly all actives have a fitted effect of over 60% in size
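ROR gamma transcriptional activity was tracked as Gal4-UAS luciferase output in stably transfected Drosophila Schneider cells, with compound added 1 hr before 700 uM copper sulfate induction and a 20 hr ambient-temperature incubation.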
KCNH2 3.1 inh: qHTS for Inhibitors of KCHN2 3.1: Mutant qHTS; U2OS KCNH2 3.1, thallium flux FluxOr; active compounds read low; activity change, % (tested at about 1.8 µM); 0.95% of 340,000 active;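 active means maximum activity change below -70%; inconclusive means maximum activity change from -70% to -50%; inactive means maximum activity change above -50%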;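 further: thallium influx rate constant from kinetic fluorescence after stimulation buffer; on the % scale 0 is the no-effect control and ±100 the full control effect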
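We transduce U2OS cells with the mutant 3.1 virus, culture them overnight, load FluxOr with Red40 quencher for 45 min, then add stimulation buffer and read kinetically for 2 min to derive a normalized rate constant.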
FLuc counter: qHTS profiling assay for firefly luciferase inhibitor/activator using purifed enzyme and Km concentrations of substrates (counterscreen for miR-21 project); Luciferin 4-monooxygenase (Photinus pyralis), P08659; purified FLuc, Km substrates, luminescence inhibition; Potency, µM (top dose mostly 57.5 µM), inactives show at the top dose activity change, negative = inhibition, actives largely listed as inhibitors; 6.9% of 360,000 active;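 further: potency means the concentration at half of the fitted maximal effect; plate controls were vehicle for no effect and reference inhibitor for full effect; nearly all actives have a fitted effect of over 55% in size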
Target sequence (P08659 whole entry, looked up): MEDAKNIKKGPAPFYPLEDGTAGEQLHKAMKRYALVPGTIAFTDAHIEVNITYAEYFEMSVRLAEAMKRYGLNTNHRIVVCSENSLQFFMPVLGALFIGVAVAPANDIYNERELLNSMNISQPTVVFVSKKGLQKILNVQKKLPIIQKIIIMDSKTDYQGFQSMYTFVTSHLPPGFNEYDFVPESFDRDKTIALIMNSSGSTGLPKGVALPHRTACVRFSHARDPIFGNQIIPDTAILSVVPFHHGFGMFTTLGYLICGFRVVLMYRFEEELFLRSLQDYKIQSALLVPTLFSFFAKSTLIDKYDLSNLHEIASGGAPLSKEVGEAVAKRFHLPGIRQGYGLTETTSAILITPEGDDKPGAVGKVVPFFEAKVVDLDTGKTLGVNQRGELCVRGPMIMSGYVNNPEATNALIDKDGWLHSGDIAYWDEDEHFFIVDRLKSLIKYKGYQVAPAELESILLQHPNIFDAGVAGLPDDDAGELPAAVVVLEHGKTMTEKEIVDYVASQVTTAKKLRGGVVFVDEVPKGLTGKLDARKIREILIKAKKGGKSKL
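Biochemical qHTS of compounds, final roughly 60 µM downward over six points, against 10 nM purified firefly luciferase using Km concentrations of substrates (10 uM D-luciferin, 10 uM ATP) in Tris acetate pH 7.5 buffer; luminescence output.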
PKM2 activator: qHTS Assay for Activators of Human Muscle isoform 2 Pyruvate Kinase | purified PKM2, Kinase-Glo ATP luminescence, activation; response scale: 0% is enzyme alone, no compound | Potency, µM (highest dose often 57.5 µM), for the others: at the highest dose activation, actives largely listed as activators | 0.34% of 260,000 active | AID 1631, 2009; further: potency means the concentration at half of the fitted maximal effect; on the % scale 0 is the no-effect control and ±100 the full control effect; nearly all actives have a fitted effect of over 55% in size
Target sequence (P14618 whole entry, looked up, canonical isoform): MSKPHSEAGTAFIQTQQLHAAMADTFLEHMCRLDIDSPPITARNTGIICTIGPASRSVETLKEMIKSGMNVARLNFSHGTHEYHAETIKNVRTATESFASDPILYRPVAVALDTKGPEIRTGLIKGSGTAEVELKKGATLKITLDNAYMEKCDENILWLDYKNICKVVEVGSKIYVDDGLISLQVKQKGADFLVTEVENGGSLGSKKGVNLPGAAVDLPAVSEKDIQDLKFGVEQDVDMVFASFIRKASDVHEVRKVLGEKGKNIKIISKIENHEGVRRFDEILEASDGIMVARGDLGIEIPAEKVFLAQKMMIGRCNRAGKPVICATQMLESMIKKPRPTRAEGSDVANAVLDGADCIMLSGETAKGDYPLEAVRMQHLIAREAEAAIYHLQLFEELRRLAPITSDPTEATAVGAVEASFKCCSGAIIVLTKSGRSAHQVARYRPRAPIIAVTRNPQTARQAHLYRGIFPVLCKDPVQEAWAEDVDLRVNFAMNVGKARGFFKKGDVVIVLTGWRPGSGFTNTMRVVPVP
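Purified hPK-M2 (>95% pure) converted ADP (0.1 mM final) to ATP with 0.5 mM PEP in 50 mM imidazole pH7.2, KCl, MgCl2, Tween 20, BSA; 1 h at room temperature. ATP detected by Kinase-Glo luminescence.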
NPC1 prom act: qHTS Assay for NPC1 Promoter Activators; AID 485313, 2010; 2.4% of 320,000 active; Huh7 NPC1 promoter luciferase reporter, 24 h; Potency, µM (doses to about 9.22 µM), without a hit: at the top dose activation, hits mostly activators;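 further: potency means the concentration at half of the fitted maximal effect; % of control where 0% means no effect; nearly all actives have a fitted effect of over 60% in size; reporter is driven by a mutant NPC1 promoter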
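Stable NPC1-promoter luciferase Huh7 line; cpd (DMSO) 24 h, 37 °C, 5% CO2; Amplite luciferase reagent 10 min RT; luminescence readout. qHTS format.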
VP16 counter: VP16 counterscreen qHTS for inhibitors of ROR gamma transcriptional activity; Drosophila S2 Gal4-VP16 UAS-luciferase, luminescence, 20 h; Potency, µM (doses to about 53.6 µM), without a hit: at the highest dose activity, negative = inhibition, most hits filed as inhibitors; 3.5% of 310,000 active; AID 2546, 2010;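 further: Gal4-VP16 expression switched on by copper sulfate through the metallothionein promoter; potency means the concentration at half of the fitted maximal effect; on the % scale 0 is the no-effect control and ±100 the full control effect; nearly all actives have a fitted effect of over 50% in size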
MBNL1-CUG inh: qHTS Assay for Inhibitors of MBNL1-poly(CUG) RNA binding | Muscleblind-like protein 1 (Homo sapiens), Q9NR56 | TR-FRET MBNL1-His/biotin-(CUG)12 binding, 665/545 ratio | Potency, µM (titrated, usually from 57.5 µM), without a hit: at the top dose activity change, negative = inhibition, actives largely listed as inhibitors | 0.036% of 280,000 active | AID 2675, 2010; active means well fitted inhibition curve with a large enough effect in the signal ratio, with a control signal flat, not every such curve was filed as active; inconclusive means small, poorly fitted or top-dose-only effect, or effect the other way, or a change in a side signal; inactive means no such curve, though single readings can be large or run the other way; the % refers to the signal ratio; further: potency means the concentration at half of the fitted maximal effect; on the % scale 0 is the no-effect control and ±100 the full control effect
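TR-FRET between His-tagged MBNL1 and biotin-(CUG)12 RNA, detected with Tb anti-His antibody (0.055 ng/ul) and streptavidin-XL665 (5 nM), 60 min at room temperature. Compounds titrated 92 nM to 58 uM; 665/545 nm ratio normalized to buffer and complex controls.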
ELG1 repair inh: qHTS screen for small molecules that inhibit ELG1-dependent DNA repair in human embryonic kidney (HEK293T) cells expressing luciferase-tagged ELG1 | HEK293T ELG1-luciferase reporter, luminescence, 16 h; DNA damage induced by 5-fluorouridine | Potency, µM (titrated, usually from 46.1 µM), for the others: at the top dose activity change, negative = inhibition, usual class: inhibitors | 2.3% of 330,000 active | AID 504467, 2011; further: potency means the concentration at half of the fitted maximal effect; on the % scale 0 is the no-effect control and ±100 the full control effect; nearly all actives have a fitted effect of over 55% in size
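Quantitative HTS, concentration-response format. 2,000 cells/well co-treated with 5-fluorouridine and compound, 16 hr in 5% CO2 at 37 °C; ONE-Glo luminescence read after 30 min.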
Rab9 promoter act: qHTS Assay for Rab9 Promoter Activators; Potency, µM (highest dose often 9.22 µM), for the others: top-dose activation, negative = inhibition, usual class: activators; Huh7 Rab9 promoter-luciferase reporter, luminescence, 24 h; AID 485297, 2010; 2.8% of 320,000 active; further: potency means the concentration at half of the fitted maximal effect; % of control where 0% means no effect; nearly all actives have a fitted effect of over 60% in size
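Promoter activation is measured as luciferase luminescence in Huh7 cells stably transfected with a Rab9 promoter–luciferase construct, following 24 h compound exposure at 37 °C and 10 min reagent incubation at ambient temperature.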
Mito fusion act: qHTS Assay for Small Molecule Inhibitors of Mitochondrial Division or Activators of Mitochondrial Fusion; Potency, µM (top dose mostly 46.1 µM), for the others: at the top dose growth rescue (activation), most hits filed as activators; 0.23% of 320,000 active; S. cerevisiae fusion-defective mutant growth rescue, CellTiterGlo 48 h;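 further: potency means the concentration at half of the fitted maximal effect; % of control where 0% means no effect; nearly all actives have a fitted effect of over 45% in size; temperature-sensitive fusion mutants such as fzo1-1 at 37 °C on non-fermentable ethanol glycerol medium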
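Growth-rescue viability read-out: after 48 h at the non-permissive 37C in glycerol/ethanol YPEG, yeast mitochondrial fusion mutants are measured by CellTiterGlo luminescence; compounds (23 nl pinned per well) restoring growth score as division inhibitors or fusion activators.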
The depositor's hits bear a star; ? = inconclusive; . = no result given; & = joins results of further samples; [ ] = dose if it differs, or a comment. Unless noted, the call rests on the fitted dose curve; in most records, active means well fitted curve in the direction sought with a large enough effect; inconclusive means small, poorly fitted or top-dose-only effect, or another doubt; inactive means no such curve, though single readings can be large; an effect the other way counts as inactive or inconclusive. The list is partial (hit frequency here may not be typical).

SMILES,RORg inh,KCNH2 3.1 inh,FLuc counter,PKM2 activator,NPC1 prom act,VP16 counter,MBNL1-CUG inh,ELG1 repair inh,Rab9 promoter act,Mito fusion act
FC(F)(F)c1cnc(-c2cnc3c(-c4ccc(Cl)cc4)cnn3c2)c(Cl)c1,-13%,17,-3%,-9%,-3%,11%,-3%,6%,-3%,-3%
Cc1ccc(-c2nn(-c3ccccc3)c3[nH]c(=O)c(CNCCN(C)C)cc23)cc1,4µM*,.,0%,-4%,0%,7.9µM*,-5%,3%,-2%,-4%
CCOC(=O)N1CCN(C(=O)c2ccc3c(c2)NC(=O)/C(=C\c2ccc(OC)c(OC)c2)S3)CC1,14%,4,?,.,1%,-6%,?,?,-10%,13%
O=C1C=C(NNC(=O)c2cccnc2)CC(c2ccco2)C1 (stereo unspecified),-37%,-19,2%,1%,2%,-7%[10 µM],-3%,-4%,-2%,6%
N#CC(C#N)=C(Nc1ccc(F)cc1)SCc1cccc(F)c1,?,-26,4%,1%,?,14µM*,-8%,?,-28%,5%
CC(NC(=O)COC(=O)CSCc1ccccc1)c1ccccc1 (stereo unspecified),-3%,-8,-18%,-13%,-7%,2%,-7%,9%,-2%,0%
CCN(CC)CCn1c2ccccc2c2cnc(N)c(C#N)c21,0.18µM*,-8,2%,9%,-20%,-63%,?,?,-24%,15%
COc1ccc(-c2cnnn2-c2ccc(NC(=O)c3ccco3)cc2)cc1OC,-2%,14,1%,1%,-1%,-17%,-11%,?,-1%,4%
CN(C(=O)CSc1nnc(-c2c[nH]c3ccccc23)o1)C1CCS(=O)(=O)C1 (stereo unspecified),28%,-10,?,.,-1%,5%,-6%,-4%,2%,-1%
COc1ccc(CC(=O)Nc2sc3c(c2C#N)CC(C)(C)NC3(C)C)cc1OC,45%,2,0%,-4%,-1%,-2%,0%,-15%,-2%,1%
CC(C)OCCCn1c(=S)[nH]c2ncccc2c1=O,8.9µM*,-8,-1%,-1%,3%,?,-3%,0%,0%,-2%
CC(=O)c1ccc(NC(=O)CSc2nnc(-c3ccoc3C)n2Cc2ccccc2)cc1,?,5,1%,-4%,-1%,8%,-3%,-21%,-5%[1.84 µM],2%
COc1ccc(NC(=S)Nc2cccc(Cl)c2)cc1OC,?,-26,-1%,-1%,-5%,8%,-6%,-8%,-5%,-5%
CC1(C)CN(C(=S)Nc2ccc(F)cc2F)C1=O,-12%,-10,-19%,.,0%,-3%,-8%,4%,-5%,-5%
CCCc1cc(-c2[nH]ncc2-c2ccc3c(c2)OCCCO3)c(O)cc1OC,3.5µM*,.,0%,-3%,1%,?,6%,?,1%,16%
COc1ccc(CCC(C)NC(=O)Cc2ccc(OC)c(OC)c2)c(OC)c1 (stereo unspecified),-5%,-17,-2%,.,-5%,9%,1%,18µM*,-7%[1.84 µM],-6%
COCCCn1c(=S)[nH]c2ncccc2c1=O,11µM*,-19,-1%,9%,-2%,-25%,-13%,15%,-2%,1%
Cc1cc(-n2c(C)cc(C(=O)CN3C(=O)NC4(CCCCCC4)C3=O)c2C)no1,?,-8,0%,-1%,-2%,1%,3%,-10%,-3%,-6%
Cc1sc(NC(=O)CSc2nnc3scc(-c4ccccc4)n23)c(C#N)c1C,-37%,5,0%,?,0%,-24%,-2%,?,-3%,0%
Nc1nc(NCCO)nc(NC2CCCCC2)c1[N+](=O)[O-],9%,3,-2%,.,1%,2%,5%,-11%,-6%,28%

3 entries from above, as labelled records:
> CC(C)OCCCn1c(=S)[nH]c2ncccc2c1=O
  RORg inh: 8.9µM*
  KCNH2 3.1 inh: -8
  FLuc counter: -1%
  PKM2 activator: -1%
  NPC1 prom act: 3%
  VP16 counter: ?
  MBNL1-CUG inh: -3%
  ELG1 repair inh: 0%
  Rab9 promoter act: 0%
  Mito fusion act: -2%

> CC(=O)c1ccc(NC(=O)CSc2nnc(-c3ccoc3C)n2Cc2ccccc2)cc1
  RORg inh: ?
  KCNH2 3.1 inh: 5
  FLuc counter: 1%
  PKM2 activator: -4%
  NPC1 prom act: -1%
  VP16 counter: 8%
  MBNL1-CUG inh: -3%
  ELG1 repair inh: -21%
  Rab9 promoter act: -5%[1.84 µM]
  Mito fusion act: 2%

> COc1ccc(NC(=S)Nc2cccc(Cl)c2)cc1OC
  RORg inh: ?
  KCNH2 3.1 inh: -26
  FLuc counter: -1%
  PKM2 activator: -1%
  NPC1 prom act: -5%
  VP16 counter: 8%
  MBNL1-CUG inh: -6%
  ELG1 repair inh: -8%
  Rab9 promoter act: -5%
  Mito fusion act: -5%

More records.
Every second line gives: RORg inh, KCNH2 3.1 inh, FLuc counter, PKM2 activator, NPC1 prom act, VP16 counter, MBNL1-CUG inh, ELG1 repair inh, Rab9 promoter act, Mito fusion act
- Cc1ccc(S(=O)(=O)N2CCOCC2)cc1C(=O)Nc1ccc(-c2cn3ccsc3n2)cc1
→ ?, 7, ?, 12%, -1%, 21%, 62%[activator], 18µM*, -3%, -4%
- Cc1ccc(NC(=S)NC(NC(=O)c2ccccc2)C(Cl)(Cl)Cl)c(C)c1 (stereo unspecified)
→ ?, -2, 5%, 7%, -3%, ?, ., ?, -2%, 11%
- CCCC(c1nnnn1Cc1ccc(F)cc1)N1CCN(C2CCCCC2)CC1 (stereo unspecified)
→ -24%, 3, 0%, -8%, 2%, -13%, -17%, ?, -2%, 9%
- C/C(CC(=O)NC1CCCCC1)=N\NC(=O)COc1ccc(C)cc1Br
→ 2%, 1, -13%, -2%, -2%, 25%, ., 1%, 18%, 0%
- N#Cc1ccccc1Cn1c(=O)n(-c2ccc(CC(=O)NCc3ccco3)cc2)c(=O)c2sccc21
→ 1%, -8, 0%, 2%, -1%, -3%, 0%, 1%, -9%, -4%
- O=C(Nc1ccc(Cl)cn1)C1CCCN1S(=O)(=O)c1ccccc1 (stereo unspecified)
→ 1%, -12, -1%, 1%, -6%, -4%, 5%, ?, -7%, 2%
- CC(C)c1ccc(NC(=O)COc2ccccc2)cc1
→ -11%, 18, 17µM*, 3%, ?, 27%, -3%, ?, ?, -4%
- COc1ccc(CNCCC(c2ccc(OC(C)C)cc2)C(C)C)cc1OC (stereo unspecified)
→ -28%, -36, 3%, 2%, 2%, -25%, -4%, -8%, -4%, -13%
- N/C(=N\OC(=O)c1ccco1)c1cccc(Br)c1
→ 2%, -1, 6.7µM*, -13%, 18%, ?, -3%, ?, 18%, 2%
- COc1cc2c(cc1OC)CN(C(=O)CCCOc1ccc(Cl)cc1Cl)CC2
→ 18%, 3, -7%, -2%, 8%, -5%, 4%, ?, -1%, 19%
- Cc1cc(C#Cc2c(-c3ccccc3)n(C)c3ccccc23)ccc1F
→ -6%, -4, 3%, 1%, 1%, 8%, 35%[activator], -5%, -2%, 6%
- Cc1nc(N2N=C3/C(=C/c4ccc(F)cc4)CCCC3C2c2ccc(F)cc2)sc1C(=O)N(C)C (stereo unspecified)
→ 0%, -16, 2%, -19%, 8%, ?, 10%, ?, -17%, ?
- COC(=O)c1ccc(OC(=O)c2nn(C)cc2Cl)c(OC)c1
→ 10%[10 µM], 8, -16%, 4%, 8%, 3%, -12%, 15%, 1%, 3%
- CCc1ccc(NC(=O)Cn2nnc(C(=O)NCc3ccco3)c2N)cc1
→ 11%, 28, -3%&0%, -2%[0.46 µM], -1%, -9%, -2%, 0%, -4%, 3%
- CCC1CCCCN1C(=O)CSc1nnc(-c2cccs2)o1 (stereo unspecified)
→ ?, -6, 17µM*, 0%, ?, 1%, 5%, ?, 3.2µM*, -5%
- CCCCCCCC(=O)N/N=C(/C)c1c(O)cc(C)oc1=O
→ 8.9µM*, 3, -3%, -15%, 2%, 22µM*, 3%, -6%, -6%, -4%
- Cc1cc(C)cc(NC(=O)Cn2nnc(C(=O)NCCc3ccccc3)c2N)c1
→ 4%, 14, 2%&-8%, ., -2%, -4%, -2%, 18%, -2%, -1%
- O=C(Nc1ccccc1)c1ccc(COc2ccccc2)cc1
→ -1%, 1, -13%, -4%, ?, -2%, 5%, ?, ?, 1%
